# hNpr1 antagonist: antagonists of human natriuretic peptide receptor Npr1 | P16066 | HEK293 hNpr1 GloSensor cGMP, ANP-stimulated luminescence | Potency, µM (top dose mostly 46.3 µM), without a hit: top-dose activity change, negative = inhibition, usual class: inhibitors | hit rate 1.6% among 76,000 | AID 1347048; active = well fitted inhibition curve with a large enough effect; inconclusive = small, poorly fitted or top-dose-only effect; inactive = no such curve, though single readings can be large or run the other way;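 further: nearly all actives have a fitted effect of over 60% in size; nearly all hits also lower the signal before the agonist is added; a reference antagonist and vehicle were the controls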
# Target sequence (P16066 whole entry, looked up): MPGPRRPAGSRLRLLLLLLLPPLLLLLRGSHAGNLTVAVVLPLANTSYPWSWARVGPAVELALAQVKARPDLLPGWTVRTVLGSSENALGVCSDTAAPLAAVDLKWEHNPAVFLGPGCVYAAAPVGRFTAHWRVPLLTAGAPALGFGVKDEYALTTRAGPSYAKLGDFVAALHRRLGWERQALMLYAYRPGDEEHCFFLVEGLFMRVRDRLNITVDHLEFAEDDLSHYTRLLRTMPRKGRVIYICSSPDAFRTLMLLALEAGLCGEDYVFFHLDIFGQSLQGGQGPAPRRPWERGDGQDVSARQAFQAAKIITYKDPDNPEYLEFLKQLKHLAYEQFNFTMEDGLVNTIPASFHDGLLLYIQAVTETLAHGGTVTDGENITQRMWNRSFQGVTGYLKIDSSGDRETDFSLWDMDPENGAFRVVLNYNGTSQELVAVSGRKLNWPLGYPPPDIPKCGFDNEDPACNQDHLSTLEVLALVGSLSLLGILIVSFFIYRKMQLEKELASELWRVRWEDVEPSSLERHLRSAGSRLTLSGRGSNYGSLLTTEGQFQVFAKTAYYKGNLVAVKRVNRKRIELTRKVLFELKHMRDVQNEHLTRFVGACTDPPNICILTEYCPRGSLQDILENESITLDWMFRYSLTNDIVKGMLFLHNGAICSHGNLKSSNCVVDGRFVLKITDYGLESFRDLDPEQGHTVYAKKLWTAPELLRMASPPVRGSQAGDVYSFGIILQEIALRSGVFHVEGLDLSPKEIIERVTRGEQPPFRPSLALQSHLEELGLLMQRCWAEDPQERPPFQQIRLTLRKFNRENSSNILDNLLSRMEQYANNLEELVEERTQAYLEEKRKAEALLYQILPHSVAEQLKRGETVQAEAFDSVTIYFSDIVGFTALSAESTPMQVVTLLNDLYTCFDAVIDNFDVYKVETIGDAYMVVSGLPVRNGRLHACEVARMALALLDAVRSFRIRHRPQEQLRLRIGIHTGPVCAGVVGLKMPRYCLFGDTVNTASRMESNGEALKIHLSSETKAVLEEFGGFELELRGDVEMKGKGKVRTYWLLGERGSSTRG
#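 Compound pre-incubated 30 min at room temperature on GloSensor-loaded HEK293 cells stably carrying hNpr1 and the pGS-40F cGMP biosensor. Stimulation uses hNppA at 0.1 nM final; luminescence is taken at baseline and 20 min post-agonist.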
# An asterisk follows results filed as active; [ ] = dose if it differs, or a comment. On the % scale 0 is the no-effect control and ±100 the full control effect; potency means the concentration at half of the fitted maximal effect. These rows are one share of the data; count on the stated rates, not on these rows.
no.	Compound	hNpr1 antagonist
1	O=C(CN1CC2CC(C1)[C@H]1CCCC(=O)N1C2)NCC1CCCCC1 (stereo partly drawn)	1%
2	Cc1cc(Cn2cc3c4c(cccc42)[C@H](CC(C)C)N[C@H](C(=O)NCc2cncn2C)C3)no1	2%
3	Cc1ccc(C(=O)N2C[C@@H](CO)[C@H](c3nc(C4CC4)no3)C2)nc1	0%
4	Cc1cnc(C(=O)N2CC[C@H](CO)[C@H](N(C)C)C2)cn1	7%
5	CCCS(=O)(=O)NCc1cccnc1Oc1cccc(C(F)(F)F)c1	4%
6	COCCOc1cc(-c2noc([C@@H]3CCCN3Cc3ccncc3)n2)ccn1	-6%[70.6 µM]
7	CC1=C[C@@H](CO)[C@H](C(C)C)C[C@H]1CC(=O)NCc1cccnc1	-1%[70.6 µM]
8	COCCn1c(C)cnc1CCNS(=O)(=O)c1c(C)nn(C)c1C	-11%
9	COc1ccc(C(=O)N2CCC(c3nn(-c4ccc(OC)cc4)c(=O)[nH]3)CC2)cc1	12%
10	FC(F)(F)c1cccc2c(N3CCC4(CCCN4Cc4ncc[nH]4)CC3)ccnc12	-18%
11	CN(C)S(=O)(=O)N1CCCC(Cn2c(C3CC3)nc3cccnc32)C1 (stereo not drawn)	-11%
12	CCc1nc(C)cc(-c2cc(OC)c(OC)c(OC)c2)n1	0%

# Continuation:
no.	Compound	hNpr1 antagonist
13	COCCNC(=O)[C@@H]1C[C@H](Oc2ccccc2)CN1C(=O)c1ocnc1C	1%
14	O=C(c1ccc(Cl)cc1)N1CCC2(Cc3ccccc3NC2=O)C1 (stereo not drawn)	-27%[70.6 µM]
15	CCNC(=O)N1C[C@@H]2OCC(=O)N(Cc3ccc(F)cc3)[C@@H]2C1	0%[70.6 µM]
16	Cc1noc(C)c1S(=O)(=O)N1C[C@@H](Oc2cccnc2)C[C@H]1C(N)=O	2%
17	C[C@@H]1CN(C(=O)c2cc(F)cc(C#N)c2)CC[C@@]1(O)C1CCOCC1	0%
18	Cc1ccc(NC(=O)N2CCC(n3cnnc3C3CC3)C2)cc1 (stereo not drawn)	4%
19	CCN(CC)C(=O)[C@@H]1C[C@@H](N)CN1C(=O)CC1CCCC1	3%
20	Cc1ccc(N2CCN(c3nc(C(=O)O)cs3)CC2)cc1	-16%
21	CC1CCN([C@@H]2[C@H](O)[C@H](CO)O[C@@H]2CNC(=O)c2cccc(F)c2)CC1	-4%[70.6 µM]
22	COc1ccc(-c2[nH]nc3ncc(C(=O)NCC4CCOCC4)nc23)c(C)c1	-3%[70.6 µM]
23	COc1ccc(OC)c(NC(=O)Cn2c(-c3ccc(Cl)cc3)nc(C)cc2=O)c1	-3%
24	Cc1nc(-c2c3n(c(=O)n(CC(=O)NCc4ccc(Cl)cc4)c2=O)CCCCC3)no1	-1%

# The list goes on:
no.	Compound	hNpr1 antagonist
25	O=C(CC[C@H]1NC(=O)c2ccccc2NC1=O)Nc1n[nH]c(CCC2CCCC2)n1	5%
26	Cc1ccc2nccc(C(=O)N3CCn4nc(C(=O)N5CCCC5)cc4C3)c2c1	-1%
27	Cc1cc(=O)n(CC(=O)Nc2ccc(C(C)C)cc2)c(N2CCOCC2)n1	-5%
28	CC1CCN(Cc2nnnn2CC(=O)N2CCN(c3ccccc3F)CC2)CC1	14%
29	COc1ccc(-c2ccccc2NC(=O)C2CCCN(Cc3ccc(O)c(OC)c3)C2)cc1 (stereo not drawn)	-1%
30	COc1ccc(C(=O)N2CCC(C(=O)N3CCCCCCNC(=O)CC3)CC2)cc1F	0%
31	CC(C)CCN1CCC(Oc2ncccc2C(=O)N(C)C)CC1	-8%
32	O=C(CC1COCCN1C(=O)CCn1cccc1)NCc1ccccc1F (stereo not drawn)	3%
33	Cn1cc(C(=O)N2CCC3(CC2)NCCc2c3[nH]c3ccccc23)cn1	0%
34	N#Cc1cccc(S(=O)(=O)N2CC(C(=O)NC3CCCCC3)C3(CCOCC3)C2)c1 (stereo not drawn)	-4%
35	CN1CC2(CCN(C(=O)c3ccccc3F)CC2)CC(c2ccccc2)C1=O (stereo not drawn)	0%
36	Cc1ccc(C2Cn3nnc(-c4noc(-c5ccc(F)cc5)n4)c3CO2)cc1 (stereo not drawn)	15%

# Further records:
no.	Compound	hNpr1 antagonist
37	O=C(N[C@@H]1CN(Cc2ccc(F)cc2F)C[C@H]1CO)c1ccccc1	0%
38	Cn1cc(C(=O)NCC2CN([S+](=O)([O-])c3ccccc3Cl)CC23CN(c2ccccc2)C3)cn1 (stereo not drawn)	-15%
39	O=C(NC[C@H]1COCc2nc3ccccc3n21)c1cccnc1	1%[70.6 µM]
40	CCOCCOc1cccc(C(=O)N2C[C@H](C3CC3)[C@@H](N)C2)c1	-3%
41	Cc1ccc(Cl)cc1NC(=O)Cn1cccc1-c1nc(-c2ccc(F)cc2)no1	-2%
42	Cn1c(CO[C@H]2CN(C(=O)c3cncnc3)C[C@H]2F)nc2ccccc21	3%[70.6 µM]
43	Cc1ccc(-c2nnc(C3CN(C(=O)c4ccoc4)CC34CCOCC4)o2)cc1 (stereo not drawn)	2%
44	COc1ccccc1OCCNC(=O)c1ccc2c(c1)N(C)C1CCCCN1C2=O (stereo not drawn)	3%
45	COCCN1CCC2(CCC1=O)CN(C(=O)NC(C)C)CCN2C (stereo not drawn)	-2%
46	C[C@H]1CN(C(=O)C2CCCC2)C[C@@H]1c1nc(-c2ccccc2)no1	-26%
47	COc1cccc(N2CC(C(=O)N3CCC(C(=O)NCc4cccc(Cl)c4)C3)NC2=O)c1 (stereo not drawn)	3%
48	COCc1cc(=O)n(CC(=O)Nc2cc(Cl)ccc2OC)c(N2CCOCC2)n1	-9%

# New compounds follow:
no.	Compound	hNpr1 antagonist
49	CN1CCC(N[C@H]2C[C@@H](Cc3cc(CN(C)Cc4ccccc4)on3)C2(C)C)CC1	-18%[70.6 µM]
50	Clc1ccccc1C1(c2ccnc(NCc3ccncc3)n2)CCNCC1	2%
51	CN(C)c1ccc(CN2CCC3(COc4ccccc4C(=O)N3)C2)cc1 (stereo not drawn)	-3%
52	COc1cc2c(cc1OC)C(C[C@H]1CN(C(=O)Nc3cccc(C(C)=O)c3)CC[C@H]1CC(=O)O)=NCC2	-1%
53	COc1ccc(-c2noc([C@@H]3CCCN3C(=O)c3ccco3)n2)cc1OC	1%
54	O=C(NCC1CN(Cc2ccncc2Cl)CC12CN(c1ccccc1)C2)c1ccccc1 (stereo not drawn)	3%
55	Cn1c(N2CCN(C(=O)C[C@H]3NC(=O)c4ccccc4NC3=O)CC2)nc2ccccc21	8%
56	O=C1NCCCN1C1CCN(Cc2cccnc2)CC1	13%[70.6 µM]
57	O=C(Cn1nc2c(cc1=O)CCCC2)NCC1CCC(C(=O)O)CC1 (stereo not drawn)	-4%
58	CCS(=O)(=O)N1CCC(Cc2nc(-c3cccnc3)n[nH]2)C1 (stereo not drawn)	0%
59	C[C@@H]1CN(C[C@@H]2CN(C(=O)c3ccsc3)C[C@@H]2CO)C[C@H](C)O1	0%
60	COCCN1CCCN(C(=O)c2cccc(OC)c2)c2ccccc21	-3%

# Continuation:
no.	Compound	hNpr1 antagonist
61	CCCCc1ccc(CN2C[C@@H]3CC[C@H](C2)N(Cc2ccccn2)C3=O)s1	4%
62	CCn1ccc(C(=O)N2[C@@H]3CC[C@H]2CC(NC(=O)c2ccncc2)C3)n1 (stereo partly drawn)	6%
63	Cc1ccc(C)c(C(=O)NCCn2ccn3nc(-c4cc(C)ccc4C)cc3c2=O)c1	-12%
64	COc1cccc(CN2CCCC(O)(CN3CCSCC3)C2=O)c1 (stereo not drawn)	5%
65	O=C(NC1CC1)C1CCC(=O)N(CCCc2ccccc2)C1 (stereo not drawn)	4%
66	Cc1ccc(C2NC(=O)N(CC(=O)NC(C)CCc3ccccc3)C3=C2C(=O)OC3)cc1 (stereo not drawn)	-14%
67	COCCN1CCC(N2CCN(C(=O)c3ccsc3)CC2)C1=O (stereo not drawn)	-4%
68	O=C(Nc1cnc(-c2cccc(Cl)c2)nc1)c1ccc(F)cc1F	-1%
69	O=C(c1n[nH]c(=O)c2ccccc12)N1CC2CC(C1)[C@H]1CCCC(=O)N1C2 (stereo partly drawn)	0%
70	CN(C)c1cccc(C(=O)Nc2cccc(-c3nnc4n3CCCC4)c2)c1	-4%
71	O=C(Nc1ccc(F)cc1F)c1cc(-c2ccc[nH]2)n[nH]1	2%
72	O=C(Nc1cccc(-c2ccc(N3CCCC3)nn2)c1)Nc1c(F)cccc1F	-17%

# Other compounds follow:
no.	Compound	hNpr1 antagonist
73	CCC1CCCCN1C(=O)c1ccc(-c2nnc3ccc(NC(=O)C4CCC4)cn23)cc1 (stereo not drawn)	-19%
74	Cc1ccc(CN2CCc3nc(C4CC4)nc(-c4ccc(O)cc4)c3C2)cc1	1%
75	Cc1cc2nc3n(c(=O)c2n1CC(=O)Nc1ccc2c(c1)OCCO2)CCCCC3	0%
76	Clc1ccccc1-c1cc(C2CCN(Cc3cc4n(n3)CCNC4)CC2)[nH]n1	0%
77	CN1Cc2ccc(Nc3ccccc3)nc2C(C)(C(=O)NCc2cccs2)C1 (stereo not drawn)	-20%[70.6 µM]
78	O=C(NCC1CCOCC1)c1cnc2n[nH]c(-c3ccccc3)c2n1	4%[70.6 µM]
79	CNC(=O)[C@@H]1C[C@@H](N)CN1C(=O)c1ccc(OC)c(OC)c1OC	-6%
80	COCCNC(=O)C1c2ccccc2C(=O)N(C2CCCC2)C12CCCC2 (stereo not drawn)	-8%
81	CCOc1ccccc1C(=O)N1CCC(CC(=O)NCc2ccccc2)C1 (stereo not drawn)	-12%
82	CC(=O)N1CCC(C2CCN(Cc3cc(F)c(F)cc3F)C2)CC1 (stereo not drawn)	2%
83	COc1ccc(-n2nc(-c3ccccc3)n(CC(=O)N(C)CC(C)C)c2=O)cc1	-4%
84	CC(C)n1cc(CN2CCC(Oc3ccc(C(=O)NC4CCCC4)cc3Cl)CC2)cn1	3%

# Reformatted: 4 of the compounds above
17. C[C@@H]1CN(C(=O)c2cc(F)cc(C#N)c2)CC[C@@]1(O)C1CCOCC1
  hNpr1 antagonist: 0%

18. Cc1ccc(NC(=O)N2CCC(n3cnnc3C3CC3)C2)cc1 (stereo not drawn)
  hNpr1 antagonist: 4%

19. CCN(CC)C(=O)[C@@H]1C[C@@H](N)CN1C(=O)CC1CCCC1
  hNpr1 antagonist: 3%

20. Cc1ccc(N2CCN(c3nc(C(=O)O)cs3)CC2)cc1
  hNpr1 antagonist: -16%

# Two entries drawn at random from those above, as already listed:
no.	Compound	hNpr1 antagonist
12	CCc1nc(C)cc(-c2cc(OC)c(OC)c(OC)c2)n1	0%
61	CCCCc1ccc(CN2C[C@@H]3CC[C@H](C2)N(Cc2ccccn2)C3=O)s1	4%

# Further compounds:
no.	Compound	hNpr1 antagonist
85	CN1CCCC1CCNc1nccc(-c2cnn(-c3ccc(F)cc3)c2)n1 (stereo not drawn)	3%
86	Cc1ncsc1C(=O)N1CC(COc2ccccc2)C2(C1)CN(c1ccccc1)C2 (stereo not drawn)	1%[70.6 µM]
87	Cc1cc(F)ccc1CN1CCC(CO)(CN2CCCC2)CC1	0%
88	Cc1ccc(CN(C)Cc2ccccc2C(F)(F)F)cc1	0%[70.6 µM]
89	Oc1ccccc1CN1CCC(O)(c2csc(CN3CCOCC3)n2)CC1	5%[70.6 µM]
90	CS(=O)(=O)N(C1CCOCC1)C1CN(C(=O)c2c[nH]c3ccccc23)C1	12%
91	COc1ccccc1-c1cn2c(n1)CO[C@@H](CNC1CCCC1)C2	0%[70.6 µM]
92	Cc1ccsc1CN(C)C(=O)C1C2C(=O)N(c3ccc(F)cc3)C[C@@]23C=C[C@@H]1O3 (stereo partly drawn)	1%
93	Cc1nc(C)c(C(=O)N2CCCCCC2c2nnc(-c3ccccc3)o2)s1 (stereo not drawn)	2%
94	COc1ccc2cc(C(=O)N3C[C@@H](Oc4ccccc4)C[C@H]3C(=O)N3CCOCC3)[nH]c2c1	-4%
95	COCCc1noc(-c2nc(-c3ccccc3F)no2)n1	-2%
96	O=C1CC(c2noc(-c3cccs3)n2)CN1C1CCCCC1 (stereo not drawn)	-13%

# (cont.)
no.	Compound	hNpr1 antagonist
97	Cc1ccc(-n2nc(-c3c(C)nc4scc(CC(=O)NC(C)c5ccccc5)n4c3=O)cc2C)cc1 (stereo not drawn)	-11%
98	O=C(Nc1cccc2ccccc12)O[C@@H]1CO[C@H]2[C@@H]1OC[C@@H]2NC(=O)c1cccs1	22µM*
99	COc1ccc(NC(=O)C2(C)CCCCC(=O)N2)cc1 (stereo not drawn)	-2%
100	CCC(CC)C(=O)N1CCC(Oc2nccnc2N(C)C)C1 (stereo not drawn)	2%
101	CCNC(=O)N1CC(Oc2cccc(-c3nc(-c4ccccc4)no3)c2)C1	4%
102	CO[C@H]1C(=O)N(C2CCN(S(=O)(=O)Cc3ccccc3F)CC2)[C@H]1c1ccncc1	-2%
103	CC1=NS(=O)(=O)N(Cc2ccccc2)C=C1C(=O)OCc1nc(-c2ccccc2Cl)no1	-17%
104	CN(c1ccccc1)c1ccc2nnc(-c3cc(C(=O)Nc4ccn(C)n4)ccn3)n2n1	-6%[70.6 µM]
105	O=C(c1ccc2c(c1)OCO2)N1CC(c2noc(C3CCCN3CC3CC3)n2)C1 (stereo not drawn)	0%
106	O=C(Nc1ccc2c(N3CCCCC3)ncnc2c1)c1ccsc1	-17%
107	O=c1[nH]nc2n1CCN(Cc1ccsc1)CC2	7%
108	Cc1ccc(CN2CCC3OCCN(Cc4ccccc4)C(=O)C3C2)o1 (stereo not drawn)	1%[70.6 µM]

# Further entries follow:
no.	Compound	hNpr1 antagonist
109	Cc1cccc(-c2noc([C@@H]3Cc4nc[nH]c4CN3C(=O)NC(C)C)n2)c1	-1%[70.6 µM]
110	Cc1nc(-c2cccc(Cl)c2)n(CC(=O)Nc2cccc(C(C)C)c2)c(=O)c1CCO	-8%
111	O=C1CCN(C(=O)c2cccc3[nH]ccc23)CCCCCCN1	-1%
112	Fc1ccc(C2Cn3nnc(-c4nc(-c5ccc(OC(F)(F)F)cc5)no4)c3CO2)cc1 (stereo not drawn)	-4%
